# StopGo RLuc – Primary qHTS Assay for Foot and Mouth Disease Virus Antivirals against NCGC Sytravon and CBC Compound Libraries: Renilla Luciferase Signal. AID 1745857, 2022. 0.32% of 120,000 active. Potency, µM (titrated, usually from 57.5 µM), for inactives: at the highest dose signal change, negative = less light. HEK cells with a luciferase reporter of 2A StopGo recoding; active means well fitted falling curve with a large enough effect; inconclusive means small, poorly fitted or top-dose-only effect; inactive means no such curve, though single readings can be large or run the other way; also: nearly all actives have a fitted effect of over 55% in size; overnight with compound
# StopGo FLuc – Primary qHTS Assay for Foot and Mouth Disease Virus Antivirals against NCGC Sytravon and CBC Compound Libraries: Firefly Luciferase Signal; HEK cells with a luciferase reporter of 2A StopGo recoding; Potency, µM (titrated, usually from 57.5 µM), without a hit: top-dose signal change, negative = less light; 0.23% of 120,000 active; active = well fitted falling curve with a large enough effect; inconclusive = small, poorly fitted or top-dose-only effect; inactive = no such curve, though single readings can be large or run the other way; also: nearly all actives have a fitted effect of over 60% in size; overnight with compound
# * hit, by the source's call; ? = inconclusive; & = joins results of further samples; [ ] = dose if it differs, or a comment. % is scaled to controls: 0 for no effect and ±100 for the full control effect; potency is read from the fitted curve at half-maximal effect.
SMILES,StopGo RLuc,StopGo FLuc
CC(C)OC(=O)c1ccc(NC(=O)c2cc3ccccc3oc2=O)cc1,46.0%[activator],242.8%[activator]
CC(Oc1cccc(C(F)(F)F)c1)C(=O)NN (stereo not given),13.1%,0.0%
COc1ccc(NC(=O)CC2SCCNC2=O)cc1 (stereo not given),-3.4%,149.0%[activator]
CC(C)OC(=O)CCNC(=O)c1ccc(Cl)cc1Cl,5.6%,113.5%[activator]
COC(=O)c1c(NC(=O)COc2cc(C)ccc2C(C)C)sc2c1CCC(C)C2 (stereo not given),-6.7%,-17.5%
Cc1c(C)c2ccc(OCC(=O)N3CCN(C(=O)C4COc5ccccc5O4)CC3)cc2oc1=O (stereo not given),-5.0%,8.1%
CCCCOc1ccc(NC(=O)CC(C)C)c2cccnc12,4.9%,25.6%
CC(NC(=O)c1ccc(C2SCCS2)cc1)c1cc2ccccc2o1 (stereo not given),36.7%[activator],85.2%[activator]
COc1ccc(NC(=O)c2ncoc2-c2cccc(C)c2)c(OC)c1,-0.4%,9.8%
Cn1c(=O)c2c(SCC(=O)NCc3ccco3)nc(-c3ccccc3)nc2n(C)c1=O,1.4%,-6.9%
CC(C)CCn1nc(C(=O)NCCc2ccc(S(N)(=O)=O)cc2)c2ccccc2c1=O,31.3%[activator],9.2%
CC(=O)N1CCN(C(=O)c2cc3ccccc3[nH]2)CC1,6.5%,0.0%
CC(C)CCNC(=O)c1cn(C)c2ccc(S(=O)(=O)N3CCCC3)cc2c1=O,3.8%,-15.8%
c1ccc(CCNCC2CCCCC2)cc1,?,13.7%
CCS(=O)(=O)c1ncc(N(Cc2ccc(F)cc2)Cc2ccco2)c(C(=O)Nc2cc(C)ccc2C)n1,20.0%,-6.4%
C/C(=C\C(=O)NCc1ccccn1)CCc1ccccc1,22.3%,51.1%[activator]
COC(=O)c1c(C)[nH]c(C(=O)C(C)OC(=O)C23CC4CC(CC(C4)C2)C3)c1C (stereo not given),-6.8%[1.06 µM],-13.2%
CCN(CC)C(=O)Oc1ccc2oc(=O)c(-c3ccc(OC)cc3)c(C)c2c1,23.7%,7.4%
Clc1ccc(-c2cnc(CN3CCN(c4ccccc4)CC3)o2)cc1,-3.9%,4.2%
Cc1nc(-c2ccc(Cl)cc2)sc1CCNC(=O)C(=O)Nc1ccc(F)cc1F,?,?
CCCCc1nn2c(=O)cc(COC(=O)c3ccccc3NC(=O)c3cccc(C)c3)nc2s1,-8.8%,-14.7%
CCOc1cccc(C(=O)Nc2ccc3oc(=O)ccc3c2)c1,5.1%,172.7%[activator]
CCc1ccc(-n2nc3ccc(NC(=O)c4ccc(C#N)cc4F)cc3n2)cc1,-5.5%,-0.4%
CN1CCN(c2ncc3c(n2)CCN(Cc2cc(Br)cs2)C3)CC1,-20.7%,-11.5%
CCOC(=O)c1ccc(NC(=O)CN2c3ccccc3S(=O)(=O)c3ccccc32)cc1,8.2%,9.7%
Cc1cccc(C(=O)Nc2cccc(-c3nn4c(C)nnc4s3)c2)c1,?,-20.8%
CCOc1ccccc1NC(=O)COC(=O)c1cc2c(C)nn(-c3ccc(F)cc3)c2s1,4.0%,0.6%
COc1cc(C(=O)NC2(C(F)(F)F)C(=O)NC(C)=C2C#N)cc(OC)c1OC (stereo not given),5.8%&-1.4%,4.1%&17.0%
COc1ccc(NC(=O)Cn2nc(Cc3ccncc3)c3ccccc3c2=O)cc1Cl,1.5%,0.6%
Clc1ccc2c(NN=C3CCCC3)ccnc2c1,-17.3%,0.0%
COc1cc(C(=O)Oc2c(C)cccc2C)cc(Cl)c1OC(C)C,-5.2%[1.06 µM],7.3%
N#Cc1ccccc1C(=O)c1ccc(Br)cc1,-5.4%,5.4%
Cc1cc2[nH]c(=O)c(=O)[nH]c2cc1S(=O)(=O)N1CCN(c2ccccc2)CC1,-14.9%,-24.3%
Cc1cc(CSc2ncccc2C(=O)Nc2ccnn2Cc2ccccc2)no1,263.4%[activator],54.1%
COc1ccc(CCNCc2ccc(C)s2)cc1OC,1.3%,0.1%
CCOC(=O)c1cnc2c(ccc3ccccc32)c1Nc1ccc(OC)cc1OC,-10.8%,-20.0%
CSc1ccccc1C(=O)NC(C)C,14.6%,2.8%
Cc1cccc(C(C)C)c1NC(=O)c1ccc2ccccc2n1,-0.7%,86.8%[activator]
CNC(=O)c1ccccc1OCc1coc(-c2ccccc2)n1,10µM*,?
COc1cc(NC(=O)CCc2c(C)nn(-c3ccc4nnc(C)n4n3)c2C)cc(OC)c1OC,-2.2%,-1.8%
Cc1ccccc1CNC(=O)c1cccc(NC(=O)c2nsc3ccccc23)c1,106.8%[activator],142.0%[activator]
Cc1cc(N2CCCCC2)nc2ccc(NC(=O)/C=C/c3ccccc3Cl)cc12,-3.5%,3.6%
Cc1c(Cl)cccc1S(=O)(=O)Nc1cccc(NC(N)=O)c1,170.1%[activator],-1.5%
Cc1nc2cc(NC(=O)COc3ccc(F)cc3Cl)ccc2o1,-6.0%,98.1%[activator]
CCOC(=O)c1ccc(NC(=O)Nc2cccc(-c3nnc(Cc4ccc5c(c4)OCO5)o3)c2)cc1,11.6%,2.9%
COc1ccccc1NC(=O)CSc1nc2c(oc3ccccc32)c(=O)n1Cc1ccco1,8.2%,-14.9%
CC(C)(C)NC(=O)CN1CCN(C(=O)CCc2ncc(-c3ccccc3)o2)CC1,-3.8%,20.8%
COc1cc(C(=O)NC2CC(=O)N(c3cccc(F)c3)C2)cc(OC)c1OC (stereo not given),-14.8%,-16.4%
Oc1ccc(Cl)cc1Sc1cc(Cl)ccc1O,?,-7.7%[11.5 µM]
O=C(Cn1ncc2c([nH]c3ccccc32)c1=O)NCc1cccc(Cl)c1,-8.1%,-8.0%
CC(C)(C)CC(=O)Nc1cccc(C(=O)O)c1,-6.6%,-1.7%
COc1ccc(-c2cc(C(=O)O)c3cc(C)c(C)cc3n2)cc1,3.0%,134.3%[activator]
COc1cccc(CNC(=O)Cn2ncn3nc(-c4cccs4)cc3c2=O)c1,-12.6%,-12.6%
CC1CCCCN1C(=O)c1cc(-c2cccnc2)nc2ccc(Cl)cc12 (stereo not given),26.1%,17.1%
NC(=S)NN=C1CCCCCCCCCCC1,-6.1%,2.2%
Cc1ccc(NC(=O)c2cnc3ccccc3n2)c(C)c1,-9.9%,183.0%[activator]
CCCCOc1ccc(C(=O)Nc2cc(-c3cn4cccnc4n3)ccc2OC)cc1,-8.3%,-15.9%
CCOc1ccc2nc(N3CCCC(C(=O)Nc4ccc(OC)c(Cl)c4)C3)sc2c1 (stereo not given),-9.0%,52.0%[activator]
CCN(CCCNC(=O)CSc1cc(=O)n(C)c2cc(Cl)ccc12)c1ccccc1,-1.0%,5.0%
CCOc1ccccc1-c1nc(Cn2nnc(C(=O)Nc3ccc4c(c3)OCCO4)c2N)c(C)o1,16.5%,23.8%
# Further records
SMILES,StopGo RLuc,StopGo FLuc
CCOc1ccc2c(=O)c(-c3ccc(OC)cc3)c(C)oc2c1,-10.7%,72.9%[activator]
CCn1c(C)c(C)c2cc(C(=O)NCc3ccc(OC)cc3OC)ccc21,62.2%[activator],9.0%
c1ccc(-c2nc(C34CC5CCC(CC(C5)C3)C4)cs2)cc1,4.4%,5.6%
CN(Cc1ccco1)C(=O)c1cn[nH]c1-c1ccc(Cl)cc1,-2.9%,1.1%
CCOc1ccccc1C(=O)Nc1cc2c(cc1C)n(C)c(=O)c(=O)n2C,3.2%,-6.3%
COc1ccc(-c2nc3ccccc3o2)cc1NC(=O)COc1ccc(C)c(C)c1,1.1%,0.0%
Cc1ccc(C(=O)C(C#N)C(=O)NCc2ccccc2)cc1C (stereo not given),29.0%,17.3%
Cc1ccc(NC(=O)Cn2cc(S(=O)(=O)c3ccc(C)cc3)c(=O)c3cc4c(cc32)OCO4)cc1,-18.8%,0.0%
CN(C(=O)Cn1cc(S(=O)(=O)Cc2ccccc2Cl)c2ccccc21)c1ccccc1,41.0%[activator],-3.6%
Brc1ccc(-c2noc(C3CCCCC3)n2)cc1,-12.0%,30.4%[activator]
COc1ccc(/C=C(/C(=O)c2ccccc2)c2nc3ccccc3s2)cc1O,?,0.0%
CC(C)C(NC(=O)C(c1ccccc1)C1CCCC1)c1ccccc1 (stereo not given),8.6%,4.3%
CN(C)CCNC(=O)c1ccc(Cn2c(SCc3ccc(F)cc3)nc3cccnc32)cc1,10.0%,103.1%[activator]
Cc1n[nH]c(C)c1[Se]c1c(C)n[nH]c1C,-7.9%,-5.0%
CCCCCCn1c(N2CCN(c3ccccc3)CC2)nc2c1c(=O)[nH]c(=O)n2C,-2.2%,-2.3%
Cc1cccc(N2CCN(C(=O)C3CCN(c4ncnc5c4nc4n5CCCCC4)CC3)CC2)c1C,4.5%,2.0%
Cc1ccc(-c2c(C(=O)N3CCN(c4ccc(F)cc4)CC3)oc(=O)c3ccccc23)cc1,-8.5%,-22.9%
CC1C(c2ccc(Cl)cc2)=[N+]([O-])C(C)(c2cccc([N+](=O)[O-])c2)N1O (stereo not given),73.8%[activator][1.06 µM],?
COCCNC(=O)c1ccc(Cn2c(SCC(=O)NC(C)C)nc3ccccc3c2=O)cc1,-4.4%,5.9%
CCOc1ccc(NC(=O)c2c(NC(=O)Cc3ccccc3)sc3c2CCCC3)cc1,-7.6%,-15.2%

# Next section; it opens with the 5 that closed the last part.
SMILES,StopGo RLuc,StopGo FLuc
Cc1cccc(N2CCN(C(=O)C3CCN(c4ncnc5c4nc4n5CCCCC4)CC3)CC2)c1C,4.5%,2.0%
Cc1ccc(-c2c(C(=O)N3CCN(c4ccc(F)cc4)CC3)oc(=O)c3ccccc23)cc1,-8.5%,-22.9%
CC1C(c2ccc(Cl)cc2)=[N+]([O-])C(C)(c2cccc([N+](=O)[O-])c2)N1O (stereo not given),73.8%[activator][1.06 µM],?
COCCNC(=O)c1ccc(Cn2c(SCC(=O)NC(C)C)nc3ccccc3c2=O)cc1,-4.4%,5.9%
CCOc1ccc(NC(=O)c2c(NC(=O)Cc3ccccc3)sc3c2CCCC3)cc1,-7.6%,-15.2%
Clc1ccc(CCC2CCNCC2)cc1,-2.9%,2.3%
Cn1nc(C(=O)OCCOc2ccccc2)c2ccccc2c1=O,13.4%,25.0%
CC(=O)OCC(=O)[C@@]1(O)CCC2C3CCC4=CC(=O)CC[C@]4(C)C3[C@@H](O)C[C@@]21C (stereo not given in full),16.8%,2.0%
O=C1NCN(c2ccccc2)C12CCN(CCCOc1ccc(F)cc1)CC2,-17.8%,-25.0%
CCOCCOC(=O)C(C)Oc1ccc2c(=O)c(-c3ccccc3OC)c(C(F)(F)F)oc2c1 (stereo not given),2.9%,5.3%
CC(NC(=O)CCCc1c[nH]c2ccccc12)c1ccc(F)cc1 (stereo not given),8.1%,15.7%
O=C(O)C1CCN(C(=O)c2ccoc2)CC1,10.1%,4.4%
O=C(COC(=O)c1ccccc1-c1ccc(C(F)(F)F)cc1)c1cccc([N+](=O)[O-])c1,8.91µM*,10µM*
CCOC(=O)C1(c2ccccc2)CCN(CCc2ccc(N)cc2)CC1,-12.2%,-18.9%
O=C(Nc1ccccc1)c1nnc(C(=O)N2CCC(CC(=O)N3CCCCCC3)CC2)s1,-15.8%,-20.1%
Clc1ccccc1CSc1nc(CN2CCOCC2)nc2ccccc12,-10.9%,-9.4%
CCCCN(Cc1ccco1)C(=O)Cn1nc(Cc2cccnc2)c2ccccc2c1=O,0.0%,22.5%
CCOc1ccc(S(=O)(=O)N2CCC(c3ccncc3)CC2)cc1,29.1%,-10.7%
COc1cccc(CNC(=O)Cc2ccc(NC(=O)N3CCCCc4ccccc43)cc2)c1OC,7.9%,-4.2%
CCOC(=O)C1CCCN(C(=O)Cn2nc(CC)n3c(cc4occc43)c2=O)C1 (stereo not given),0.0%,14.3%
CN(C)CCCNC(=O)c1cc2cc(F)ccc2[nH]1,-9.5%,-11.7%
CC(c1ccc(F)c(F)c1)N(C)CCS(=O)(=O)CCC(N)=O (stereo not given),-10.3%,0.1%
O=C(CCc1ncc(-c2c(F)cccc2F)o1)N1CCN(c2ccc([N+](=O)[O-])cc2)CC1,-9.6%,-0.6%
CC(C)c1ccccc1NC(=O)c1cc2ccccc2oc1=O,-6.5%,-1.2%
COC(=O)C(C(=O)OC)=C1C2CC3CC(C2)CC1C3,-7.1%,-4.0%

# Five of the compounds above, with tabs.
canonical_smiles	StopGo RLuc	StopGo FLuc
O=C1NCN(c2ccccc2)C12CCN(CCCOc1ccc(F)cc1)CC2	-17.8%	-25.0%
CC(NC(=O)CCCc1c[nH]c2ccccc12)c1ccc(F)cc1 (stereo not given)	8.1%	15.7%
CCCCN(Cc1ccco1)C(=O)Cn1nc(Cc2cccnc2)c2ccccc2c1=O	0.0%	22.5%
CC(C)c1ccccc1NC(=O)c1cc2ccccc2oc1=O	-6.5%	-1.2%
COc1cccc(CNC(=O)Cc2ccc(NC(=O)N3CCCCc4ccccc43)cc2)c1OC	7.9%	-4.2%

# New compounds follow:
SMILES,StopGo RLuc,StopGo FLuc
Cc1ccc(NC(=O)CCc2ncc(-c3ccccc3)o2)c(O)c1,28.8%,0.0%
Cc1c(C)c2ccc(OCC(=O)OCc3ccccc3)c(C)c2oc1=O,2.4%,14.7%
CS(=O)(=O)Cc1cccc(C(=O)NCC(O)c2cccc(Cl)c2)c1 (stereo not given),12.9%,140.2%[activator]
Cc1ccc(Nc2c(C(C)C)c(C)c(C#N)c3nc4ccccc4n23)cc1,13.3%,-6.8%
Cc1cccc(NC(=O)c2cccc3ncccc23)c1,-4.6%,55.0%[activator]
Cn1c(=O)c2c(nc(Oc3ccc(C#N)cc3)n2Cc2ccc(Cl)cc2Cl)n(C)c1=O,-17.5%,-16.3%
COc1ccc(CCNC(=O)c2cc(C)nc3c2c(C)nn3-c2ccc(C)cc2)cc1OC,-3.1%,-14.6%

# Compound activity deposited in PubChem BioAssay by National Center for Advancing Translational Sciences (NCATS).

# Compounds were not picked by outcome; overall some 0.55% were active at least once.
